Source: PubChem
HIV TAR-Tat – HIV-1 TAR-Tat binding disruption; HIV-1 TAR RNA, Tat peptide displacement FRET; active compounds read high; z-score (concentration not given with the values); 100,000 tested, 0.6% active; AID 1259389;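 also: score is relative to mean and SD of negative controls; some compounds called inactive have numbers as strong as hits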
CDC25B CDK2 inh – human CDC25B-CDK2/CyclinA binding inhibition; z-score (no concentration beside the values); HTRF CDC25B-CDK2/CyclinA binding, anti-His/anti-Flag; active compounds read high; AID 1259370; P30305+P24941; 94,000 tested, 0.72% active;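 also: score is relative to mean and SD of negative controls; strong numbers were not always called active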
Active calls of the source: *; nt = no result given.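 The calls were made as follows: active = z-score from 3 up in half or more of its runs; inactive = the rest.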

Values run as follows: HIV TAR-Tat | CDC25B CDK2 inh
COC(=O)CC1=C(C(=O)OC)C(c2cccs2)C(C#N)=C(N)O1 (centres undefined)
    nt | -0.56
COc1c(O)ccc(/C=N/NC(=O)c2cc(C(C)(C)C)[nH]n2)c1[N+](=O)[O-]
    nt | -0.8
O=C(Nc1nnc(SCc2nc3ccccc3[nH]c2=O)s1)c1ccccc1Cl
    -3.8 | nt
Cc1ccccc1-c1cc(C(=O)NCCc2ccccc2)c2ccccc2n1
    nt | -20
CCN(CC)S(=O)(=O)c1ccc2c(c1)N(CC(=O)N1CC(C)CC(C)C1)C(=O)CS2 (centres undefined)
    0.13 | -0.25
CC1=C(c2ccc(C(C)C)cc2)S(=O)(=O)N=C1Nc1cccc(Cl)c1
    -0.21 | -1.9
CC1C(=O)Nc2ccc(S(=O)(=O)Nc3ccccc3Br)cc2NC1=O (centres undefined)
    1.1 | -0.84
Cc1nn(CC(=O)NCc2cccs2)c(=O)c2c1sc1ccccc12
    1.5 | -2.4
CCOC(=O)c1cncc(C#CC(C)(C)O)c1
    nt | 0.35
COc1ccc(C2CCCN2C(=O)c2cnn3c(C(F)F)cc(-c4ccccc4)nc23)cc1 (centres undefined)
    1.7 | -2.9
COc1ccc(/C=C/c2nc(C#N)c(N3CC(C)CC(C)C3)o2)cc1OC (centres undefined)
    -2.2 | -1.5
COC(=O)c1c(NC(=O)Nc2ccc3nc(NS(C)(=O)=O)sc3c2)sc2c1CCCC2
    0.97 | nt
Cn1nc(C(=O)NCc2ccccn2)c2c1-c1ccccc1OC2
    1.1 | -0.51
Cn1c(=O)n(C)c2cc(CNCc3ccc4c(c3)OCO4)ccc21
    -0.37 | 0.17
CCc1nn(CC(=O)NCCCN(C)C2CCCCC2)c(=O)c2cc3sccc3n12
    0.08 | 1.1

For convenience, part of the list above.
Values run as follows: HIV TAR-Tat | CDC25B CDK2 inh
COC(=O)CC1=C(C(=O)OC)C(c2cccs2)C(C#N)=C(N)O1 (centres undefined)
    nt | -0.56
COc1c(O)ccc(/C=N/NC(=O)c2cc(C(C)(C)C)[nH]n2)c1[N+](=O)[O-]
    nt | -0.8
O=C(Nc1nnc(SCc2nc3ccccc3[nH]c2=O)s1)c1ccccc1Cl
    -3.8 | nt
Cc1ccccc1-c1cc(C(=O)NCCc2ccccc2)c2ccccc2n1
    nt | -20

The results go on:
Values run as follows: HIV TAR-Tat | CDC25B CDK2 inh
Cc1ccc(N(C)S(=O)(=O)c2cc(-c3csc(C)n3)ccc2C)cc1
    0.02 | nt
Brc1cccc(CN2CCc3nc(N4CCCC4)ncc3C2)c1
    -0.96 | nt
COc1ccc(CNc2c(S(=O)(=O)c3ccc(Cl)cc3)cnc3cc(OC)c(OC)cc23)cc1
    1.2 | -2
NC(=O)c1nnn(Cc2ccccc2)c1N
    nt | -0.12
Cc1cc(C(=O)NCc2ccc(N3CCN(C)CC3)cc2)no1
    nt | -1.6
CCCn1c2ccccc2c2nnc(SC(CC)C(=O)Nc3cccc4ccccc34)nc21 (centres undefined)
    nt | -1.1
Cn1c(=O)[nH]c(=O)c2c1[nH]c(=S)n2CC(=O)c1ccccc1
    nt | 0.05
OC(CSc1ccccc1)CN1CCC(Nc2nccc(C(F)(F)F)n2)CC1 (centres undefined)
    nt | -1.6
CCCCN1CC(c2nc3ccccc3n2CC(=O)N(CC)c2ccccc2)CC1=O (centres undefined)
    0.86 | -1.2
Cc1noc2nc(C)n(CC(=O)O)c(=O)c12
    1.1 | -1.2
CC(C)CC(=O)Nc1ccc2nsnc2c1
    1.3 | -1.6
NC1CONC1=O (centres undefined)
    nt | -1.3
COCCn1c2c(c(=O)[nH]c1=O)C(c1ccc(Cl)cc1)C1=C(N2)c2ccccc2C1=O (centres undefined)
    3.6 | -2.3
Cc1onc(-c2ccccc2Cl)c1NC(=O)N1c2ccc(F)cc2CCC1C (centres undefined)
    nt | -0.35
O=C(/C=C/c1ccc(Cl)cc1)Nc1ccc(O)c(-c2nc3ccccc3o2)c1
    nt | -1.1
CCC1CCc2c(sc(NC(=O)c3cnccn3)c2C#N)C1 (centres undefined)
    -7.3 | -1
CSc1sc(C(=O)Nc2cccc(Cl)c2)c(-c2cccs2)c1C#N
    nt | -0.6
O=S(=O)(c1cccc2nsnc12)N1CCCc2ccccc21
    nt | -1.9
Cn1cnc2c(C(=O)N3CCC(N4CCCCC4)CC3)nn(-c3ccccc3)c2c1=O
    1.2 | nt
Cc1ccccc1NS(=O)(=O)c1cc(-c2onc(C)c2C)ccc1C
    1.1 | nt
CCC1c2ccc(C)n2CCN1C(=O)Nc1ccc(F)c(Cl)c1 (centres undefined)
    -9.2 | -0.83
Cc1ccc(S(=O)(=O)NCc2cn3ccsc3n2)c(C)c1
    nt | -1
O=C(Nc1ccc(-c2nc3ccccc3o2)cc1)c1nc(-n2cnnc2)ccc1Br
    7.2* | nt
O=C(Nc1sc2c(c1C(=O)N1CCOCC1)CCCC2)c1ccco1
    nt | -1.8
C=CCSc1nnc(-c2ccc(C)cc2)o1
    1.3 | -1
COc1ccc(C2NC(C(=O)O)CS2)c(OC)c1 (centres undefined)
    1.1 | -1.1
Cc1ccc(S(=O)(=O)C2C=c3c(=O)n(C)c(=O)n(C)c3=N2)cc1 (centres undefined)
    2.1 | -1.6
CCOCCCNC(=O)C1CCN(c2nn3c(=O)cc(C)nc3s2)CC1
    2.7 | -0.46
COC(=O)c1ccc([C@@H]2Nc3c(OC)ccc(Cl)c3[C@@H]3C=CC[C@@H]32)cc1
    1.2 | 2
CCCC12CN3CC(C)(CN(C1)C3c1ccc(F)cc1)C2=O (centres undefined)
    nt | 1.1
CC1CCCCN1CCNC(=O)Nc1cn(C)c(=O)c2ccccc12 (centres undefined)
    -2.6 | nt
O=C(CCS(=O)(=O)c1cc2c(cc1Cl)NC(=O)CO2)Nc1cccc(Br)c1
    -1.2 | nt
O=S(=O)(c1cccc2nsnc12)N1CCN(c2nc3ccccc3nc2C(F)(F)F)CC1
    0.29 | nt
O=S(=O)(Nc1cccc(-c2ccc(N3CCOCC3)nn2)c1)c1ccccc1F
    0.45 | nt
O=C(O)CC(NC(=O)Cc1cccc2ccccc12)C(=O)O (centres undefined)
    nt | 0.79
COc1ccc(OC)c(NC(=O)Cn2nc3cnc4ccccc4n3c2=O)c1
    0.15 | 0.38
CC1=CC(C)(C)N(C(=O)Nc2ccccc2)c2cc(C)c(C)cc21
    -3.9 | -2.5
CCOC(=O)C(=CNNCCC#N)C(=O)OCC
    nt | -0.27
CCOC(=O)c1oc2ccc(S(=O)(=O)Nc3ccc4c(c3)sc(=O)n4CC)cc2c1C
    1.1 | nt
O=C(CCN1C(=O)C2C3C=CC(C3)C2C1=O)N1CCCCC1 (centres undefined)
    nt | -0.99
Cc1ccc(-c2onc(C)c2C)cc1S(=O)(=O)Nc1ccccc1F
    2 | nt
COc1ccccc1-n1c(-c2ccccc2F)n[nH]c1=S
    nt | -2.1
CCN(C(=O)CSc1nc(-c2ccccc2)nc2cc(=O)[nH]n12)c1cccc(C)c1
    0.74 | nt
CCC(C(=O)Nc1cccc(F)c1)n1nc(C)c2sc3ccccc3c2c1=O (centres undefined)
    2.6 | -1.5
Cc1cccc(Cc2c(C)nc3nc(SCC(=O)N4CCCC4)nn3c2C)c1
    nt | -0.33
CC1=NS(=O)(=O)c2cc(C(=O)N3CCN(C)CC3)ccc2N1CC(C)C
    1.8 | nt
COCCc1nn2c(=O)cc(COC(=O)c3ccccc3Cl)nc2s1
    1.3 | nt
O=C(OCc1ccccc1)Sc1nc2ccccc2[nH]1
    nt | 0.02
CCOC(=O)c1c(NC(=S)NC)sc2c1CCCC2
    nt | -1.7
CN1C(C)(C)CC(NC(=O)CCC(=O)NC2CC(C)(C)N(C)C(C)(C)C2)CC1(C)C
    nt | -3.7
Cc1cc(NC(C)C)n2nc(-c3ccccc3C)nc2n1
    1.1 | -0.94
CCC(C(=O)NCC1CCCN1CC)n1c2ccccc2c2nc(=O)cc(C)n21 (centres undefined)
    0.19 | -0.3
COc1ccc(-c2nn3c(=O)c(NC(=O)c4ccc(Cl)cc4)cnc3o2)cc1
    0.77 | nt
CCC(=O)OC1=C(C(=O)OC)N(C(C)C)S(=O)(=O)c2ccccc21
    0.05 | -0.45
CN(C)c1ccc(-c2nc3cnccn3c2Nc2ccc3c(c2)OCO3)cc1
    -1.3 | -4.1
CCN(CC)CCOC(=O)C(c1ccccc1)C1CCCCC1 (centres undefined)
    0.8 | nt
CC1CCC(NC(=O)C2CCN(S(=O)(=O)c3ccc4c(c3)CCC(=O)N4)CC2)CC1 (centres undefined)
    1.4 | -0.93
COc1ccc(C2C(C(=O)c3cc4ccccc4o3)=C(O)C(=O)N2CCN2CCOCC2)cc1OC (centres undefined)
    1.3 | -2.2
CC1CCc2nn(CC(=O)NCc3ccco3)cc2C1 (centres undefined)
    0.79 | -0.89
COc1ccc(NC(=O)C2=Cc3sc4c(c3CS2)CCC(C)C4)cc1 (centres undefined)
    -0.72 | nt

The last 2 records of the part above lead into the next.
Values run as follows: HIV TAR-Tat | CDC25B CDK2 inh
CC1CCc2nn(CC(=O)NCc3ccco3)cc2C1 (centres undefined)
    0.79 | -0.89
COc1ccc(NC(=O)C2=Cc3sc4c(c3CS2)CCC(C)C4)cc1 (centres undefined)
    -0.72 | nt
CCOc1ccc(/C=C/c2nc(C#N)c(N3CCCC3)o2)cc1
    0.49 | -1.1
Cc1ccc(-c2nnc(N3CCOCC3)c3ccccc23)cc1S(=O)(=O)N1CCCCC1
    0.56 | -0.98
Fc1ccccc1-c1noc(NCCc2ccc(Cl)cc2)n1
    -1 | nt
CC(C)C(=O)Nc1nnc(S(=O)(=O)N2CCCCC2)s1
    2.1 | -1.6
O=C(Cn1c2ccccc2c(=O)c2ccccc21)Oc1ccccc1F
    nt | -2.8
CC#C[C@]1(O)CC[C@H]2[C@@H]3CCC4=CC(=O)CCC4=C3[C@@H](c3ccc(N(C)C)cc3)C[C@@]21C
    1.5 | -1
Cc1nn(-c2ccc(N3CCCC3)nn2)c(C)c1CCC(=O)NCCc1ccco1
    -0.22 | nt
Cn1cccc1Cc1nnc(SCC(=O)Nc2nccs2)n1-c1ccc(Cl)cc1
    0.47 | -0.17
CCC(C(=O)NCCCN1CCN(C2CCCCC2)CC1)n1nc(C)n2c(cc3occc32)c1=O (centres undefined)
    0.99 | -1
COc1ccc(-c2cc(C(=O)N3CC4(C)CC3CC(C)(C)C4)no2)cc1OC (centres undefined)
    nt | 2.1
CC(C)(C)c1ccc(C(=O)Nc2nnc(SCc3cc(=O)n4ccsc4n3)s2)cc1
    0.57 | nt
CCCCCOC(=O)C1=C(C)Nc2nnnn2C1c1cccc(Cl)c1 (centres undefined)
    -1.2 | -0.88
CCCCC(=O)Nc1ccc2c(c1)nc1n2CCN(C(C)C)C1
    0.91 | -2.6
CC1CC(C)CN(c2nnc(NC(=O)c3csc4c3CCCC4)s2)C1 (centres undefined)
    0.13 | -2.1
Cc1ccc(CNC(=O)CCCn2nc(C)n3c(cc4occc43)c2=O)cc1
    2.1 | 0.49
COC(=O)c1cc(Cl)cc2c1N[S@](=O)S2
    nt | 0.54
O=c1c(O)cccc2cc(O)c(O)c(O)c12
    30* | nt
Fc1ccc(N2COc3ccc(Cl)cc3C2)cc1
    nt | 2.2
Brc1cccc(-c2nn3c(C4COc5ccccc5O4)nnc3s2)c1 (centres undefined)
    0.49 | -1.8
CCn1c(/C=C/c2ccc([N+](=O)[O-])o2)nc2ccccc2c1=O
    -8.8 | -0.86
CCCCCCCCCCCCCCCCCCN=C(C)N
    nt | 4.5*
CCCc1nc2nc(C)cc(Nc3ccc(F)cc3)n2n1
    1.8 | -0.41
CC1Cc2ccccc2N1C(=O)Cn1cnc(S(=O)(=O)N2CCCCC2)c1 (centres undefined)
    -0.37 | nt
Cc1sc(NC(=O)c2ccc3c(c2)OCCO3)c(C#N)c1C
    0.47 | nt
Cc1noc2ncnc(N3CCC(c4ccccc4)C3)c12 (centres undefined)
    -0.53 | nt
O=C1c2cccnc2C(=O)N1Cc1ccc(F)cc1S(=O)(=O)N1CCN(C2CCCCC2)CC1
    -0.13 | nt
O=C(Cn1ncc2c([nH]c3ccccc32)c1=O)Nc1ccc(Cl)cc1
    2.4 | nt
Cc1cc2nc(CSc3ccccc3NC(=O)c3ccco3)cc(=O)n2o1
    -0.58 | nt
O=C(O)C1=CCCN(CCON=C(c2ccccc2)c2ccccc2)C1
    nt | 0.17
C[C@@H](N)CO
    1.9 | nt

Some values from the results shown.
In HIV TAR-Tat, Cc1ccc(N(C)S(=O)(=O)c2cc(-c3csc(C)n3)ccc2C)cc1 reads 0.02
In CDC25B CDK2 inh, CSc1sc(C(=O)Nc2cccc(Cl)c2)c(-c2cccs2)c1C#N reads -0.6
In CDC25B CDK2 inh, CCC1c2ccc(C)n2CCN1C(=O)Nc1ccc(F)c(Cl)c1 (centres undefined) reads -0.83
In CDC25B CDK2 inh, CN1C(C)(C)CC(NC(=O)CCC(=O)NC2CC(C)(C)N(C)C(C)(C)C2)CC1(C)C reads -3.7

Next section.
Values run as follows: HIV TAR-Tat | CDC25B CDK2 inh
CCOC(=O)c1c(NC(=O)COCc2cc(-c3ccc4c(c3)OCO4)on2)sc2c1CCCC2
    -0.67 | nt
CN(CCNC(=O)c1ccc2c(c1)NC(=O)C1CCCCN21)C1CCCCC1 (centres undefined)
    0.97 | nt
O=C(O)c1ccc(CN2C(=O)c3ccc(S(=O)(=O)c4ccc(C(=O)O)cc4)cc3C2=O)cc1
    nt | -1.6
CCCc1nnc(NC(=O)CSc2nnc(-c3cc4ccccc4o3)n2C)s1
    1.4 | nt
C=CCN1C(=O)c2[nH]nc(-c3c(C)cc(C)cc3O)c2C1c1ccc(OCC)cc1 (centres undefined)
    0.61 | 0.28
O=C(COc1ccc2ccccc2c1)OCC(=O)c1ccc(Cl)cc1
    0.11 | -2.3
C/C(=N\NC(=S)Nc1cccc(F)c1)c1ccco1
    nt | -0.87
COC(=O)C1=C(C)NC2=C(C(=O)CC(C)(C)C2)C1c1ccc(SC)cc1 (centres undefined)
    1.3 | 0.51
CCC(C(=O)NCCCN(CC)CC)n1ncn2c(cc3occc32)c1=O (centres undefined)
    0.7 | -0.99
CC(C)c1ccc(N(C)S(=O)(=O)c2ccsc2-c2nc(-c3cccs3)no2)cc1
    1.4 | nt
